KCNQ2 block: KCNQ2 potassium channel inhibitors, primary screen, cell-based, CHO-K1, FluxOR thallium flux, B-score (AID 2156) | B-score at 10 µM | 310,000 compounds, 1.1% hits | Potassium voltage-gated channel subfamily KQT member 2 (Rattus norvegicus), O88943 | 20 min; hits give low values; only compounds with negative scores are shown here; some inactives read as strong as hits;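 active means fluorescence ratio B-score at most minus 3 library SDs, with starting brightness B-score within 2 library SDs, cut at about -5.5 in these data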
Target sequence (O88943 whole entry, looked up): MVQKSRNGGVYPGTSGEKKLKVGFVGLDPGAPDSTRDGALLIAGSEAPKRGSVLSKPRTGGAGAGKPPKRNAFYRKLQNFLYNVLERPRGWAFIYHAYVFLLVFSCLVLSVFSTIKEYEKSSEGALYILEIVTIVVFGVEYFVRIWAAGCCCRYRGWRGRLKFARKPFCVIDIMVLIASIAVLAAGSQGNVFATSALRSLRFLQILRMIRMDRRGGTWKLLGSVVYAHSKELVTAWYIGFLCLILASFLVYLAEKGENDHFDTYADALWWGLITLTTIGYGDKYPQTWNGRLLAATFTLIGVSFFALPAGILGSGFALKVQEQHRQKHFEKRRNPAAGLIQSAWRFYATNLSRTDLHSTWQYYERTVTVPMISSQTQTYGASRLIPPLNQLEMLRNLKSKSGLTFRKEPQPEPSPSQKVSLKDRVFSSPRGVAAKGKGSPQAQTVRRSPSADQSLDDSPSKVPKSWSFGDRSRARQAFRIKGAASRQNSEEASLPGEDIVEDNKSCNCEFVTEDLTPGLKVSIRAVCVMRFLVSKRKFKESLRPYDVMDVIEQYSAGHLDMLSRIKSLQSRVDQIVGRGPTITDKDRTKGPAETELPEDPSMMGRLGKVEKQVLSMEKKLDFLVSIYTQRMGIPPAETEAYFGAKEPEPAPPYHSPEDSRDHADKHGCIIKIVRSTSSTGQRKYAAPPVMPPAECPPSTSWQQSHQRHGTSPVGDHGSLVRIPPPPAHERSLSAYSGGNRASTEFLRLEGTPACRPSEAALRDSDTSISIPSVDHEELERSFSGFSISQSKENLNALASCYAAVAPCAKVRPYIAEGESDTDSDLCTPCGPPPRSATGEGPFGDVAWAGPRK
KCNQ2 block baseline: further read-out of KCNQ2 block, marked with its call; B-score; measured here: initial fluorescence intensity artifact check;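 brightness before thallium and not channel activity; 0 = typical well and far values either way flag optical interference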
Starred values were filed as active, the others as inactive; i = inactive. A portion of the library (hit frequency here may not be typical).

A first look:
SMILES | KCNQ2 block | KCNQ2 block baseline
CC1=C(C(=O)NC(C)c2ccccc2)C2(CCC(C)CC2)OC1=O (stereo not given) | i | -0.59
NNC(=O)c1ccc(NS(=O)(=O)c2ccc(Br)cc2)cc1 | i | -2
O=C(COc1ccc(/C=N/NS(=O)(=O)c2ccccc2)cc1)NCc1ccccc1 | i | 0.05
CCn1c(SCC(=O)NC2CC2)nnc1-c1ccccc1OC | i | -1
O=C(NCc1ccccc1)c1nc(-c2cccs2)no1 | i | 0.91
O=C(CSC1=Nc2ccccc2C2=NC(CC(=O)N3CCN(c4ccccc4)CC3)C(=O)N12)NCC1CCCO1 (stereo not given) | i | 0.16
O=C(COC(=O)c1ncc(Cl)c(Cl)c1Cl)Nc1cccnc1Cl | i | 0.07
O=C(CCc1nnc(CCCc2ccccc2)o1)N1CCCCCC1 | i | 2.2
N#CCC(CNc1ncc(C(F)(F)F)cc1Cl)OC(=O)c1c(F)cccc1F (stereo not given) | i | 0.85
O=C(c1ccco1)N1N=C2CCCCCC2C1(O)C(F)(F)F (stereo not given) | i | -0.91
O=C(c1ccc(N2CCCC2)c([N+](=O)[O-])c1)N1CCN(S(=O)(=O)c2ccc(Cl)cc2)CC1 | i | 1.3
Cc1cccc(NC(=S)NNC(=S)NC2CCCCC2)c1C | i | -0.31
Cc1ccc([C@@H]2[C@@H]3C(=O)N(c4ccccc4)C(=O)[C@@H]3[C@]3(C)C(=O)N(Cc4ccccn4)CC(=O)N23)o1 | i | 0.07
Cn1cc(S(=O)(=O)NCc2ccc3c(c2)OCO3)c(C(F)(F)F)n1 | i | -1.2
CC(Oc1ccccc1)C(=O)N1CCC2(CC1)Oc1ccc(F)cc1C(=O)C21CC(c2ccccc2)=NO1 (stereo not given) | i | 0.8
O=C(CSc1cc(Cl)ccc1Cl)NCC(=O)Nc1ccc(F)c(F)c1F | i | 0.79

The whole of this part, repeating the preview:
SMILES | KCNQ2 block | KCNQ2 block baseline
CC1=C(C(=O)NC(C)c2ccccc2)C2(CCC(C)CC2)OC1=O (stereo not given) | i | -0.59
NNC(=O)c1ccc(NS(=O)(=O)c2ccc(Br)cc2)cc1 | i | -2
O=C(COc1ccc(/C=N/NS(=O)(=O)c2ccccc2)cc1)NCc1ccccc1 | i | 0.05
CCn1c(SCC(=O)NC2CC2)nnc1-c1ccccc1OC | i | -1
O=C(NCc1ccccc1)c1nc(-c2cccs2)no1 | i | 0.91
O=C(CSC1=Nc2ccccc2C2=NC(CC(=O)N3CCN(c4ccccc4)CC3)C(=O)N12)NCC1CCCO1 (stereo not given) | i | 0.16
O=C(COC(=O)c1ncc(Cl)c(Cl)c1Cl)Nc1cccnc1Cl | i | 0.07
O=C(CCc1nnc(CCCc2ccccc2)o1)N1CCCCCC1 | i | 2.2
N#CCC(CNc1ncc(C(F)(F)F)cc1Cl)OC(=O)c1c(F)cccc1F (stereo not given) | i | 0.85
O=C(c1ccco1)N1N=C2CCCCCC2C1(O)C(F)(F)F (stereo not given) | i | -0.91
O=C(c1ccc(N2CCCC2)c([N+](=O)[O-])c1)N1CCN(S(=O)(=O)c2ccc(Cl)cc2)CC1 | i | 1.3
Cc1cccc(NC(=S)NNC(=S)NC2CCCCC2)c1C | i | -0.31
Cc1ccc([C@@H]2[C@@H]3C(=O)N(c4ccccc4)C(=O)[C@@H]3[C@]3(C)C(=O)N(Cc4ccccn4)CC(=O)N23)o1 | i | 0.07
Cn1cc(S(=O)(=O)NCc2ccc3c(c2)OCO3)c(C(F)(F)F)n1 | i | -1.2
CC(Oc1ccccc1)C(=O)N1CCC2(CC1)Oc1ccc(F)cc1C(=O)C21CC(c2ccccc2)=NO1 (stereo not given) | i | 0.8
O=C(CSc1cc(Cl)ccc1Cl)NCC(=O)Nc1ccc(F)c(F)c1F | i | 0.79
S=C(NNc1ccc2ccccc2c1)NC1CCCCC1 | i | 1.6
Cc1ccc[n+](CC2OCc3ccccc3CO2)c1 | i | -0.25
CCOC(=O)Cn1cnc2c(cnn2-c2ccc(Cl)cc2)c1=O | i | 0.16
CCC(=O)OCCNc1cc(SCCC(=O)OC)c2nonc2c1[N+](=O)[O-] | i | 0.53
CN(CCc1cnn(C)c1)Cc1nc(Cc2ccccc2)no1 | i | 0.08
Cc1sc2ncnc(N=Nc3c(O)[nH]c4ccccc34)c2c1C | i | 1.7
O=C(CSc1nc2ccccc2[nH]1)NCCN1CCCCC1 | i | 2.4
CC1CCC(NC(=O)C(=O)Nc2ccc3c(c2)OCO3)CC1 (stereo not given) | i | 0.97
Cc1ccccc1-c1noc(CNC(=O)c2ccco2)n1 | i | 0.37
COc1ccc(S(=O)(=O)N2CCSC2)cc1C | i | -0.99
CCOc1ccc(C(=O)Nc2ccccc2OC(F)F)cc1 | i | 0.07
O=C(NCCNc1ccc([N+](=O)[O-])cc1C(F)(F)F)c1ccc(F)cc1 | i | -0.24
O=C(Nc1cc(Br)ccc1O)c1cc(-c2ccccc2)on1 | i | -0.53
COc1ccc(NC(=O)CN2CCN(CC(=O)Nc3ccc(F)cc3)CC2)c(OC)c1 | i | -0.58
N/C(Cc1ccc([N+](=O)[O-])cc1)=N\OC(=O)Cc1ccc(Cl)cc1 | i | -0.56
CC(C)CC(NC(=O)COc1ccccc1)C(=O)O (stereo not given) | i | 0.32
COC(=O)C1=CN(c2ccc(OC)cc2)C=C(C(=O)OC)C1c1ccc(C)c([N+](=O)[O-])c1 | i | 0.35
COCCC(=O)N1CCC(Oc2ccc(C(=O)NC3Cc4ccccc4C3)cc2)CC1 | i | 0.58
CCOc1ccc(-c2nn(-c3ccccc3)cc2/C=C(\C#N)S(=O)(=O)c2ccccc2)cc1C | i | 2.5
O=C(O)COc1cccc(NC(=O)C2CCCO2)c1 (stereo not given) | i | -0.7
CN1CCN(NC(=O)COc2cccc(C(F)(F)F)c2)CC1 | i | -0.89
COc1ccc(CNC(=O)CN(C)S(=O)(=O)c2ccccc2)cc1 | i | 0.44
COc1cccc(NC(=O)[C@@H]2CCC(=O)N2C2OC(=O)c3ccccc32)c1 (stereo not given in full) | i | 1.7
CCCN(CC(=O)Nc1ccccc1C)C(=O)c1ccc(N2CCCCC2)c([N+](=O)[O-])c1 | i | -0.01
COc1ccc(C)cc1S(=O)(=O)N1CCN(c2cccc(C(F)(F)F)c2)CC1 | i | -0.01
S=C1NCN(Cc2cccnc2)CN1 | i | 1.8
C=C(C)C(=O)OCC(O)COc1ccc(C(C)(C)c2ccc(OCC(O)COC(=O)C(=C)C)cc2)cc1 (stereo not given) | i | 0.87
CCOC(=O)c1cc(-c2ccc(C)cc2)n(CCC(=O)N2CCN(c3ccccn3)CC2)c1C | i | 1.6
CCOC(=O)CNC(=O)c1c2c(nc3ccccc13)CCCC2 | i | 0.59
O=C1CC(N2CCCN(C3CC(=O)N(c4ccc(F)cc4)C3=O)CC2)C(=O)N1c1ccc(F)cc1 (stereo not given) | i | 2.3
CC(C)C[C@H](NC(=O)c1nc[nH]c1C(=O)N1CCN(c2ccccc2)CC1)C(=O)OCc1ccccc1 | i | -3.6
COCC(=O)N1CCC(n2nnc3cc(C(F)(F)F)ccc32)CC1 | i | 3.9
O=C(NC1CCCCCC1)c1ccc(CS(=O)Cc2ccccc2Cl)o1 (stereo not given) | i | -0.57
CCN(c1ccccc1)S(=O)(=O)c1ccc(C(=O)N(CCN(C)C)c2nc3c(F)cc(F)cc3s2)cc1 | i | 0.71
CCNC(=O)C1CC(=O)N(CC)C(=Nc2cc(Cl)c(O)c(Cl)c2)S1 (stereo not given) | i | -2.5
O=C1NN=C(c2ccccc2)CC1c1ccc(Cl)cc1Cl (stereo not given) | i | 0.2
O=C(O)CCCNC(=O)/C(=C\c1ccccc1F)NC(=O)c1ccccc1 | i | 0.1
O=S(=O)(O)CCN1CCOCC1 | i | 0.61
Cc1c(C(=O)c2ccc(F)cc2)c2ccccn2c1CCc1ccccn1 | i | -1.5
COc1ccccc1C(=O)NC(=S)Nc1ccc(Cc2ccncc2)cc1 | i | 1.4
CN(C)S(=O)(=O)c1ccc(Cl)c(NC(=O)CN2CCNC(=O)C2)c1 | i | 1.7
O=C(O)c1c(C(=O)O)c(-c2ccc(Cl)c(Cl)c2)n2c1CSC2 | i | -1.4
CCn1nc(C)c(CCC(=O)O)c1C | i | -0.91
CC(C)(C)c1cc(S(=O)(=O)CCc2ccccn2)cc(C(C)(C)C)c1F | i | 0.54
Next section.
SMILES | KCNQ2 block | KCNQ2 block baseline
CC(C)(C)c1ccc(C(=O)NCc2nnc(SCC(=O)NCc3ccco3)o2)cc1 | i | 0.2
COc1cnn(-c2ccccc2)c(=O)c1SCc1ccc(Cl)c(Cl)c1 | i | -0.99
CO/N=C1\CCCc2c(C(=O)NN)sc(SC)c21 | i | -0.44
CS(=O)(=O)N(CC(=O)NCc1ccco1)c1ccc(Cl)cc1Cl | i | 1.6
Cc1ccc(-c2nc3sc4c(c3c(=O)n2N)CC(C)(C)OC4)cc1 | i | -0.02
COc1cc(-c2nc3cccc(C)n3c2NCC2CCCO2)ccc1O (stereo not given) | -8.6* | 3.7*
Cc1ccc(N=C(c2cccs2)N2CCOCC2)cc1 | i | 2.7
CCN1CCN(/C=N/c2nc(C)cs2)CC1 | i | 1.3
CCOc1ccc(C2NC(=O)CCC2[N+](=O)[O-])cc1 (stereo not given) | i | 0.03
CCOC(=O)c1c(N)sc(C(=O)Nc2ccccc2)c1C | i | 0.92
O=C(COC(=O)C1c2ccccc2Oc2ccccc21)Nc1ccc2c(c1)OCO2 | i | 0.17
Clc1ccc(-c2nc3ncccn3c2Cl)cc1 | i | 0.01
COC(=O)c1ccc(CSc2nnc(CNC(=O)c3ccc(OC)cc3)o2)o1 | i | 0.79
CCn1c(N2CCN(S(=O)(=O)c3ccc(Cl)cc3)CC2)nc2ccccc21 | i | 1.4
CN(Cc1cccc(F)c1)C(=O)c1ccccc1Sc1ccccc1C#N | i | 1.5
CCOc1cc(/C=N/O)ccc1OCc1ccc(F)cc1 | i | 0.4
COC(=O)c1ccc(C)c(NS(=O)(=O)c2ccc(C)c([N+](=O)[O-])c2)c1 | i | -2.2
Cc1ccc(C2=NN(C3=NN=C(N)Cc4ncnn43)C(O)(C(F)(F)F)C2)cc1 (stereo not given) | i | 1.2
Cc1cccc(C)c1NC(=O)Nc1ccccc1-n1ccnc1 | i | 0.09
NC(=S)NNc1cccc2cccnc12 | i | -0.88
Cc1ccc(S(=O)(=O)NCCC(=O)OCc2ccc([N+](=O)[O-])cc2)cc1C | i | -0.56
C(/C=C/C=C/Nc1ccccc1)=Nc1ccccc1 | i | 12
CCOC(=O)c1c(C)nc(-c2ccccc2)nc1NC(=O)CC | i | 1
COc1ccc(-c2cc3nc4c(c(=O)n3[nH]2)CCC4)cc1 | i | -1.3
COc1ccc(S(=O)(=O)N2CCCCC2)cc1NC(=O)CCc1nc2ccccc2c(=O)[nH]1 | i | -0.46
Nc1nc(NCc2ccco2)nc(N2CCCCC2)c1[N+](=O)[O-] | i | 2.2
O=c1c(-c2ccc(Cl)cc2)[n+]([O-])c2ccccc2n1OCc1ccccn1 | i | 0.05
Cc1cc(NC(=O)COC(=O)c2n[nH]c3ccccc23)no1 | i | -0.09
Cc1cc(C)c(S(=O)(=O)N2CCCC(C(=O)NCc3cccnc3)C2)c(C)c1 (stereo not given) | i | 0.52
Oc1ccccc1C1CC(c2cccs2)=NC(c2cccc(Br)c2)N1 (stereo not given) | i | 0.04
Cc1ccsc1C(=O)N(Cc1nnc(-c2ccccc2Cl)o1)C1CC1 | i | -0.25
Cn1c(CSc2ncn[nH]2)nc2ccccc21 | i | 0.81
Cc1cc2c3c(c1C)C1(C(=O)N3C(C)(C)CC2C)C(C#N)=C(N)Oc2n[nH]c(C)c21 (stereo not given) | i | -0.26
COc1ccc2[nH]c(CN3CCN(C(C)C)C(CCO)C3)c(C)c2c1 (stereo not given) | i | 2.7
CN(C)c1ccc(NC(=O)Nc2cccc(Cl)c2)cc1 | i | -0.02
COc1ccc(OC)c(NC(=O)C2CCCN2C(=O)NC2CCCCC2)c1 (stereo not given) | i | 0.44
CC1(c2ccccc2)NC(=O)N(Cc2ccc([N+](=O)[O-])cc2)C1=O (stereo not given) | i | -0.83
CCc1ccc(NC(=S)Nc2ccc3[nH]c(=O)[nH]c3c2)cc1 | i | 0.34
O=C(Cc1coc2cc3c(cc12)CCC3)NCC1(N2CCCCC2)CCCCC1 | i | -1.3
COc1ccc(C(=O)N[C@H](C(=O)NCC2CCCCC2)C(C)C)cc1 | i | -0.11
CCc1ccccc1NC(=S)NCC1CCN(c2ccc(OC)cc2)C1 (stereo not given) | i | 2
O=C(/C=C/c1ccco1)N1CCN(S(=O)(=O)/C=C/c2ccccc2)CC1 | i | -1.8
COc1ccccc1C(=O)Nc1nc(-c2ccc3c(c2)OCCO3)cs1 | i | 1.2
CCCNC(=O)NS(=O)(=O)c1cnccc1Sc1ccc(Cl)c(Cl)c1 | i | 0.92
CCc1nnc(NC(=O)c2ccc(S(=O)(=O)N3CCOCC3)cc2)s1 | i | 0.03
NC(=O)CC(c1ccccc1)c1ccc2c(c1)OCO2 (stereo not given) | i | -0.97
Oc1[nH]c2ccccc2c1N=Nc1ccc(F)cc1 | i | 5.2
O=c1[nH]c(-c2ccc(O)cc2)nc2scc(-c3cccs3)c12 | i | 0.54
CC(OC(=O)c1cccc([N+](=O)[O-])c1)C(=O)NCc1ccc2c(c1)OCO2 (stereo not given) | i | 0.72
CC(=O)Nc1ccc(S(=O)(=O)NCC(=O)NNC(=O)COc2ccccc2Cl)cc1 | i | -0.45
CC(C)c1ccc(/C=C/C(=O)NC(=S)NN2CCOCC2)cc1 | i | -3.1
Cc1ccc2c(c1)cc(CN(Cc1ccco1)C(=O)N1CCOCC1)c1nnnn12 | -8.8* | -1.9*
Cc1oc(-c2ccccc2Cl)nc1CS(=O)(=O)CC(=O)NCCc1ccccc1 | i | -0.04
COc1cccc(C(=O)Nc2ccc(S(=O)(=O)N3CCCCC3)cc2)c1OC | i | 0.73
COc1ccc(-n2ncc3c2CC(C)(C)CC3NC(=O)C2=CC(=O)CC(C)(C)O2)cc1 (stereo not given) | i | -0.61
CN(CC(=O)Nc1ccc(Cl)c(Cl)c1)C1CCCCC1 | i | -0.58

Bioassay records (PubChem BioAssay)
